# High-throughput results (PubChem BioAssay)
# AmpC nodet inh: blocks E. coli AmpC beta-lactamase in absence of detergent. AID 585. AmpC nitrocefin hydrolysis, absorbance 480 nm, no detergent; potencies from a single point are estimates. P00811. hit rate 1.8% among 71,000. Potency, µM (series often up to 28.7 µM), for inactives: at the highest dose activity change, negative = inhibition; active = falling curve, for most hits resting on a single point; inconclusive = weak or doubtful change; inactive = flat or rising curve; also: % of control where 0% means no effect; about half of the hits show no inhibition at the top dose; a quarter of the inactives give rising signals
# Target sequence (P00811 whole entry, looked up): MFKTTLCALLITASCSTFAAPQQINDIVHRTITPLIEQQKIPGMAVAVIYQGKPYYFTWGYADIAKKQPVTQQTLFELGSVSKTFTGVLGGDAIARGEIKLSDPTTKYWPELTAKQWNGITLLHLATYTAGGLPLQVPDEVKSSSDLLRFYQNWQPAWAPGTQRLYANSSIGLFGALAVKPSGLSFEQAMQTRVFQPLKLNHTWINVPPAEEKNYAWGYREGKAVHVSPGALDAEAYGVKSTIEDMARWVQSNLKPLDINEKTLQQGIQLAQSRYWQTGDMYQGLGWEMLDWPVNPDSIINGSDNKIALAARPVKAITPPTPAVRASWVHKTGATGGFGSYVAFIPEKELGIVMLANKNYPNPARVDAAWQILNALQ
#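 AmpC in 20 mM phosphate buffer pH 7.0 was preincubated 15 min at room temperature with compounds. Nitrocefin (800 uM stock) was then added and hydrolysis followed at 480 nm every 20 s for 4 min.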
# * hit, by the source's call; & = joins results of further samples; [ ] = remark or other dose. Potency is read from the fitted curve at half-maximal effect. Only part of the results is shown (hit frequency here may not be typical).
SMILES,AmpC nodet inh
O=C1O[C@@H]([C@@H](O)CO)[C@@H](O)[C@H]1O,-1.2%[12.8 µM]
CCOC(=O)Nc1nnc(-c2ccccc2OC)s1,-13.4%
c1ccc(CNn2nnnc2-c2ccccc2)cc1,-1.7%
O=C(CSCc1ccccc1)Nc1nccs1,-21.5%
COC(=O)c1ccc(C(NC(=O)OCc2ccccc2)/C(I)=C/[C@@H](C)C(=O)NCc2ccncc2)cc1 (stereo partly specified),102.5%
CCOC(=O)c1c(NC(=O)COC)sc2c1CCCC2,58.7%
COC(=O)Nc1c(-c2ccccc2)nc2ccccn12,-1.8%
CCOC(=O)CSc1nc2c(sc(=S)n2Cc2ccco2)c(=O)n1-c1ccccc1,5.4%
COc1ccc(CCNC(=O)c2cc3sccc3n2C)cc1OC,17.1%
CO/C=C/C#CC1(O)CCN(C)CC1,-1.6%
Cc1ccccc1CSc1nnc(Cn2c(=O)sc3ccccc32)n1C,32.6%
CCc1c(O)nc(SCC(=O)Nc2ccccc2)n(-c2ccccc2)c1=O,-4.9%
COc1ccc(C2C(C(=O)Nc3cccc(C)n3)CCC(=O)N2c2ccc(OC)cc2)cc1 (stereo unspecified),121.5%
COc1cccc(CN2CCNC(=O)C2CC(=O)O)c1OC (stereo unspecified),5.5%
O=c1c(-c2ccccc2)nc2cncnc2n1C1CC1,13.7%
O=C(Cc1n[nH]c(=O)c2ccccc12)OCC(=O)c1ccc2c(c1)OCCO2,5.7%
c1csc(CSc2nc3ccccc3s2)c1,-15.4%
O=C(Nc1ccc(Br)cc1)N1CCCCCCC1,-1.0%
Cc1ccc(-c2nn(C)c(=O)c3ccccc23)cc1S(=O)(=O)N1CCOCC1,88.9%
COC(=O)Nc1nc2ccccc2[nH]1,-7.6%
O=C(CN(Cc1ccco1)C(=O)CCC(=O)Nc1ccccn1)NCCc1ccccc1,23.9%
CN(C)NC(=O)CCC(=O)O,-5.7%
CCn1c(SCC(=O)Nc2ccccc2F)nc2c(c1=O)SC(C)C2 (stereo unspecified),12.6%
O=C(Nc1ccc(F)c(F)c1)c1ccc2c(c1)OCO2,-10.1%
COc1ccccc1C(=O)NCCn1cc(SCC(=O)Nc2nnc(C)s2)c2ccccc21,81.2%
COc1ccc(CCN2C(=O)C3C4C=CC(C4)C3C2=O)cc1OC (stereo unspecified),8.5%
NNC(=O)[C@@H](O)[C@H](O)C(=O)NN,0.8%[5.75 µM]
CC(=O)N1CCC2(CC1)CN(c1ccncc1)C2,19.5%
COC(=O)CSc1nnc(-c2cnccn2)n1C,-6.5%
O=C(c1ccc2c(c1)ncn2C1CCCCC1)N1CCC2(CC1)OCCO2,38.3%
COc1ccc(CNC(=O)CN(CC2CCCO2)C(=O)CNS(=O)(=O)c2ccccc2)cc1 (stereo unspecified),44.8%
CN(C)C(=O)/N=N\C(=O)N(C)C,3.0%
Cc1c(N2C(=O)C(C)SC23C(=O)Nc2ccccc23)c(=O)n(-c2ccccc2)n1C (stereo unspecified),2.6%
CN(C)Cc1cc(C(F)(F)F)ccc1C(O)(c1ccccc1)c1ccccc1,22.4%[5.75 µM]
Cc1nnc(NC(=O)c2ccco2)s1,-2.5%
CCn1c(N)c(C(=O)NC2CCCCC2)sc1=S,-0.9%
O=C(Nc1cccc(Cl)c1)N1CCN(Cc2ccccc2)CC1,22.7%
c1cncc(-c2nc3cc(Cc4ccc5oc(-c6cccnc6)nc5c4)ccc3o2)c1,-3.7%
COc1cc(-c2nnc3sc(-c4ccncc4)nn23)cc(OC)c1OC,17.5%
Cc1ccc(S(=O)(=O)NCc2ccncc2)cc1,-7.5%
COc1cc(OC)cc(C(=O)NCc2cccnc2)c1,-7.5%
Cc1nccn1CC(O)COC1CCCCC1 (stereo unspecified),2.6%
CC(=O)c1cc2c(cc1NS(=O)(=O)c1ccc3c(c1)OCCO3)OCO2,-5.1%
CC(C)n1c(-c2ccco2)csc1=Nc1cccnc1,13.8%
COc1cccc(C2C(C#N)=C(N)Oc3cc(C)n(Cc4ccccn4)c(=O)c32)c1OC (stereo unspecified),12.5%

# Reprinted at random: two entries already listed.
SMILES,AmpC nodet inh
CC(=O)c1cc2c(cc1NS(=O)(=O)c1ccc3c(c1)OCCO3)OCO2,-5.1%
CN(C)C(=O)/N=N\C(=O)N(C)C,3.0%

# (list continues)
SMILES,AmpC nodet inh
CC12CCCCC1=[N+]([O-])CN2O (stereo unspecified),5.9%
CCc1cc2c(=O)n(C(C)C(=O)OC3CCCCC3)cnc2s1 (stereo unspecified),28.5%
CC(C)c1[nH]nc2c1C(c1cccnc1)C(C#N)=C(N)O2 (stereo unspecified),1.5%
CC(C)n1c(N2CCN(C(=O)N3CCCCC3)CC2)nc2ccccc21,95.2%
CN(C)c1cccc(C(=O)Nc2cccc(F)c2)c1,-12.9%
COc1ccc(-c2nnn(CC(=O)OC3CCCCC3)n2)cc1OC,98.7%
O=C(CSc1nc2ccccc2[nH]1)NCCCn1ccnc1,-8.7%
Cc1ccc2c(c1)N(CC(=O)N1CCN(c3nc4ccccc4s3)CC1)C(=O)C(C)O2 (stereo unspecified),64.1%
CCc1nc2cc(Cl)c(Cl)cc2[nH]1,-0.7%
CCOc1ccc(NC(=O)CN2CCN(CC(=O)Nc3ccc4c(c3)OCO4)CC2)cc1,62.8%
CCCOC(=O)Nc1ccc(C(N)=O)cc1,-9.0%
CC(C)NC(=O)c1ccc2c(=O)n(C3CCCC3)c(=S)[nH]c2c1,-4.3%
O=C1c2[nH]nc(-c3ccccc3O)c2C(c2ccccc2)N1Cc1ccco1 (stereo unspecified),12.2%
O=C(C1CCCN(S(=O)(=O)c2ccccc2)C1)N1CCCc2ccccc21 (stereo unspecified),57.2%
CC(C)(C)c1nnc2sc(SCC(=O)N3CCCc4ccccc43)nn2c1=O,42.8%

# Sorted by number of heavy atoms (low to high): part of the list above
SMILES,AmpC nodet inh
CO/C=C/C#CC1(O)CCN(C)CC1,-1.6%
CC(=O)N1CCC2(CC1)CN(c1ccncc1)C2,19.5%
O=C(Nc1cccc(Cl)c1)N1CCN(Cc2ccccc2)CC1,22.7%

# (listing goes on)
SMILES,AmpC nodet inh
O=C(c1csnn1)N1CCC2(CC1)CN(c1cccc(-c3ccccc3)c1)C2,127.0%
CC1(C)CC(=O)C2=C(C1)OC(c1cccs1)C(C#N)=C2N (stereo unspecified),-0.8%
N#CCSc1nnc(-c2ccccc2O)n1CCc1ccccc1,-11.4%
S=C(S)NCCN1CCNCC1,22.6%[5.75 µM]
Cc1nc(NCc2ccccc2)c2nc(-c3ccccc3)n(CCN3CCOCC3)c2n1,165.8%
Clc1ccc(Cl)c2sc(N3CCCC3)nc12,37.8%
Cc1ccc2cc(CN(CC3CCCO3)C(=O)NC3CCCCC3)c(=O)[nH]c2c1C (stereo unspecified),86.4%
Cc1cc(C)c2c(=O)n(-c3ccccc3)[nH]c2n1,-5.7%
O=C(O)c1ccccc1C(=O)O,-8.6%
CC1CCc2cc(F)ccc2N1C(=O)CN1C(=O)c2ccccc2C1=O (stereo unspecified),40.3%
CC(C)(C)c1cc(CNC2CS(=O)(=O)C[C@@H]2O)cc(C(C)(C)C)c1O (stereo partly specified),26.7%
COC(=O)c1ccc2c(c1)NC(=O)C(N1CCCCC1)S2 (stereo unspecified),10.4%
CCCC(c1nnnn1C1CCCCC1)N1CCN(c2ncccn2)CC1 (stereo unspecified),80.2%
O=C(CSc1ccc(Cl)cc1)NC1CCCC1,5.2%
Cc1ccc(S(=O)(=O)N2CCCC2CO)cc1 (stereo unspecified),-5.4%

# Among those listed so far, nine contain two or more sulfur atoms:
SMILES,AmpC nodet inh
O=C(CSCc1ccccc1)Nc1nccs1,-21.5%
CCOC(=O)CSc1nc2c(sc(=S)n2Cc2ccco2)c(=O)n1-c1ccccc1,5.4%
Cc1ccccc1CSc1nnc(Cn2c(=O)sc3ccccc32)n1C,32.6%
c1csc(CSc2nc3ccccc3s2)c1,-15.4%
CCn1c(SCC(=O)Nc2ccccc2F)nc2c(c1=O)SC(C)C2 (stereo unspecified),12.6%
COc1ccccc1C(=O)NCCn1cc(SCC(=O)Nc2nnc(C)s2)c2ccccc21,81.2%
CCn1c(N)c(C(=O)NC2CCCCC2)sc1=S,-0.9%
CC(C)(C)c1nnc2sc(SCC(=O)N3CCCc4ccccc43)nn2c1=O,42.8%
S=C(S)NCCN1CCNCC1,22.6%[5.75 µM]

# (next part)
SMILES,AmpC nodet inh
CC(=O)N1CCc2cc(S(=O)(=O)Nc3cccc(C(F)(F)F)c3)ccc21,48.7%
CCCCCCn1c(N2CCN(c3ccccc3)CC2)nc2c1c(=O)n(C)c(=O)n2C,132.1%
Cn1nnnc1SCC(=O)Nc1ccc(N2CCOCC2)cc1,-1.8%
O=C(Cn1ncc2c(=O)oc3ccccc3c21)N1CCC(N2CCCCC2)CC1,3.16µM*[single pt active]
CCc1ccc2nc(NC3=NCN(CCN4CCOCC4)CN3)nc(C)c2c1,5.5%
CCCCCOc1ccc(C(=O)NC(C(=O)O)C(C)C)cc1 (stereo unspecified),8.6%
COc1ccc(-c2[nH]ncc2Oc2ccccc2OC)c(O)c1,5.4%
COc1ccccc1CN1CC2(CCN(C(=O)c3cnccn3)CC2)C1,-13.0%
Cc1noc(C)c1S(=O)(=O)N(CC(=O)O)c1ccc2c(c1)OCO2,-9.8%
CN(C)S(=O)(=O)c1cccc(C(=O)Nc2cccnc2)c1,-7.2%
COc1ccc(NCc2nnc(SCC(=O)N3CCCc4ccccc43)n2C)cc1,22.9%
COC(=O)c1ccc(C(NC(=O)OCc2ccccc2)/C(=C/[C@@H](C)C(=O)N(C)C)c2cccnc2)cc1 (stereo partly specified),139.7%
O=C(CCSCCC(=O)NCCN1CCOCC1)NCCN1CCOCC1,3.3%
CN(C)S(=O)(=O)N1CCc2ccccc2C1,-12.4%
O=C(CSCCO)Nc1cccc(C(F)(F)F)c1,13.5%
Oc1ccc(Cl)cc1Cc1cc(Cl)cc(Cc2cc(Cl)ccc2O)c1O,-18.4%[5.75 µM]
COc1ccc(C2C(C#N)=C(N)Oc3n[nH]c(C)c32)cc1CN1CCN(c2ccc(F)cc2)CC1 (stereo unspecified),11.8%
COc1ccc(COCC(O)CN2CCOCC2)cc1OC (stereo unspecified),-1.5%
Cc1ccc(-c2nnn(CC(=O)Nc3ccc(S(=O)(=O)N4CCC(C)CC4)cc3)n2)cc1,12.6µM*
COc1cccc(-c2nnc(N(C)C(=O)C3CCOC3)s2)c1 (stereo unspecified),52.0%
O=C(NCCO)C(c1ccccc1)c1ccccc1,4.4%
Cc1cc(NC(=O)CCCC(=O)NCc2cccs2)no1,26.3%
CC(C)CN(C(=O)COC(=O)C12CC3CC(CC(O)(C3)C1)C2)C1CCS(=O)(=O)C1 (stereo unspecified),8.7%
CS(=O)(=O)NCCSCc1ccccc1,-0.2%
CC1(C)N=C(N)N=C(N)N1CCCCc1ccccc1,7.2%[5.75 µM]
Cc1cccc(N(CC(=O)Nc2c(C)n(C)n(-c3ccccc3)c2=O)S(C)(=O)=O)c1,3.0%
CSC1=NCCN1C(=O)c1ccc(S(=O)(=O)N(C)C)cc1,1.0%
CN(Cc1nnc(SCC(=O)NCCc2ccccc2)n1C)S(=O)(=O)c1ccccc1,75.5%
CCOC(=O)c1nnn(CC(=O)Nc2cccc(OC)c2)c1C(=O)OCC,2.0%
O=C(Nc1cnn(Cc2ccccc2)c1)c1nc2ncccn2n1,-4.0%
Cc1ccc2c(c1)c1c3n2CCN=C3CCC1,-5.4%
O=C(C1CC1)N1CCc2cc(S(=O)(=O)NCC3COc4ccccc4O3)ccc21 (stereo unspecified),3.6%
O=C1CC(N2CCN(c3cccc(C(F)(F)F)c3)CC2)C(=O)N1c1ccccc1 (stereo unspecified),47.8%
Cc1sc(NC(=O)CN2CCN(c3ccccn3)CC2)c(C#N)c1C,40.7%
COc1cc(C)ccc1NC(=O)c1ccc(S(=O)(=O)N2CCOCC2)cc1,34.1%
COc1ccc2[nH]c(=S)[nH]c2c1,-5.6%
CCOc1cccc(-c2cc(=O)[nH][nH]2)c1,-3.7%
C=CCNC(=O)c1cc(=O)c2ccccc2o1,4.8%
CCOC(=O)C1CCN(C(=O)c2ccc(OC)cc2OC)CC1,26.7%
O=C(CSc1c2c(nc3ccc(Cl)cc13)CCCC2)N1CCN(C(=O)c2ccco2)CC1,123.1%
CSc1nc2sc3c(c2c(=O)n1C)CCC(C)C3 (stereo unspecified),22.3%
CC1(C)OC(C(=O)NC2CCCCC2)C(C(=O)NC2CCCCC2)O1 (stereo unspecified),43.2%
CC(=O)C(C)Oc1ccc2c3c(c(=O)oc2c1C)CCCC3 (stereo unspecified),61.1%
O=c1c(-c2ccc(F)cc2)nc2cncnc2n1Cc1ccccc1,21.4%
COC(=O)c1[nH]c(C)c(/C(O)=C2\C(=O)C(=O)N(CCN3CCOCC3)C2c2cccs2)c1C (stereo unspecified),-4.2%
CN1[C@@H]2CC[C@H]1CC(OC(=O)c1cc(Cl)cc(Cl)c1)C2 (stereo partly specified),15.6%&12.9%
CCOc1ccc(C2CC(c3cccc(OC)c3)n3nc(N)nc3N2)cc1 (stereo unspecified),107.9%
N#CC1=C(O)CCCn2c1nc1ccccc1c2=O,-2.8%
Clc1ccccc1OCCCCN1CCCC1,-3.3%
CCCCc1cc2ccccc2c(OCCN(C)C)n1,34.4%[12.8 µM]
CCCCn1c(N)c(Sc2ccc(C)cc2)c(=O)[nH]c1=O,-3.6%
CC(C)NC(=O)CSCc1ccccc1Cl,-2.5%
Cc1nc(-c2ccccc2)c(Cc2ccccc2O)c(=O)[nH]1,10.0%[5.75 µM]
CCN(CCCNC(=O)c1[nH]c(C)c(C(C)=O)c1C)c1ccccc1,12.6%
NC(Cc1ccc2nonc2c1)C(=O)O (stereo unspecified),-12.8%
COC(=O)Cc1c(C)c2ccc(OC(=O)c3ccco3)cc2oc1=O,-5.0%
O=C(NCCC1=CCCCC1)c1ccc(Br)o1,-5.7%
Cc1cc(C)nc(N2CCCC(C(=O)NC3CCCC3)C2)n1 (stereo unspecified),5.7%
CCOC(=O)c1c(C)[nH]c(NC(=O)N2CCOCC2)c1C,1.4%
